Screening data (PubChem BioAssay)
eIF4H inh = inhibitors of RNA binding by human eIF4H; eIF4H fluorescence polarization binding assay; inhibition, % at 35 µM; hit rate 0.94% among 290,000; AID 2012;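 active = 50% or more with normal probe brightness, or confirmed in later tests; inconclusive = above 50% with abnormal brightness, or retests that disagree; inactive = below 50% or failed in later tests; about a fifth of its hits are not listed in these tables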;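 note: calls also rest on retests at 20 µM and on dose response follow-up; 0% = protein and probe with vehicle and 100% = probe without protein; strong numbers were not always called active; many hits fall short of the cut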
PABP polyA inh = PABP-poly(A) binding inhibition. PABP-poly(A) RNA binding, fluorescence polarization. inhibition, % at 35 µM. hit rate 1% among 290,000;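 active = 50% or more with normal probe brightness, or confirmed in later tests; inconclusive = above 50% with abnormal brightness, or retests that disagree; inactive = below 50% or failed in later tests; about a fifth of its hits are not listed in these tables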;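 note: calls also rest on retests at 20 µM and on dose response follow-up; controls were probe without protein and protein plus probe with vehicle; some compounds called inactive have numbers as strong as hits; many hits fall short of the cut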
MT1-MMP act inh = blocks activation of human MT1-MMP | P50281 | HT1080 RFP-PRO-GFP cells, GFP/RFP ratio fluorescence, overnight; percent of plate control window, DMSO zero | GFP/RFP ratio change, % at 20 µM | hit rate 0.061% among 360,000 | AID 651647;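 active = GFP/RFP ratio change of at least 30% with cell ATP level not reduced by more than half and red fluorescence within 50% of control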; note: strong numbers were not always called active
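Assay system: HT1080 RFP-PRO-GFP cells. Benchmarks: DMSO vehicle wells and RFP-L50D-GFP reporter cell wells. Times: overnight cell settling, then overnight compound exposure, 37 °C, 5% CO2. Compound: 20 µM single dose, 1% DMSO. Read-out basis: GFP/RFP fluorescence ratio.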
HIV Env fusion = blocks HIV Env-driven cell-cell fusion | HeLa-JRFL Env/CEM21 cell fusion, luciferase | inhibition, % at 12.3 µM | hit rate 1.1% among 360,000;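 active = mean replicate inhibition score of at least 50 and every replicate individually at or above 50; inconclusive = only one of the two criteria met; inactive = mean below 50 and not all replicates reaching 50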;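 note: 0% = plate neutral controls and 100% = maraviroc near 300 nM; one replicate is shown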
Rce1 inhib = inhibitors of yeast Ras-converting enzyme | yeast membranes, quenched prenylated peptide cleavage fluorescence | calls only | hit rate 0.27% among 290,000 | AID 2563;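 active = fall in fluorescence gain of 50% or more versus controls, with final raw signal at or below 3038400; inconclusive = same 50% fall but final raw signal above 3038400; inactive = fall in fluorescence gain under 50%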;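 note: plate controls were neutral control wells for no effect and wells lacking membranes for full effect; tested at 10 µM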
Target sequence (Q03530 whole entry, looked up): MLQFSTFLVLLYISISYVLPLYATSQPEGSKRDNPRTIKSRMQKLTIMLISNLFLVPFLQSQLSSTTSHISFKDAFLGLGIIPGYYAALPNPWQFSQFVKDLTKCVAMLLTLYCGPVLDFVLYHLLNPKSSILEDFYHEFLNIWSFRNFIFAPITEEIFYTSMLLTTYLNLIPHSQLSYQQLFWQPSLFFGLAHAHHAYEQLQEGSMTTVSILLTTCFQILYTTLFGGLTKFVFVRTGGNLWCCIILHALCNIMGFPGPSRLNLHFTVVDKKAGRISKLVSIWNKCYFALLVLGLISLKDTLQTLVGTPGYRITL
Yeast UUG start = alters start codon recognition fidelity in yeast; hit rate 0.13% among 350,000; activity score, % at 18.7 µM; AID 602363; S. cerevisiae UUG-firefly luciferase reporter, luminescence/redox ratio;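 active = replicate mean at a twofold rise or more, about +100% in these data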;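 note: firefly luciferase made from a UUG start codon reports start codon fidelity; reporter light over untreated wells divided by growth signal over untreated wells; some hits fall short of that in this replicate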
CSC inhib = blocks cancer stem cells; cancer stem cell-like cells viability, luminescence; inhibition, % at 7.5 µM; hit rate 1.1% among 300,000; AID 2717;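 active = mean at 75% or more and at least half the replicates too; inconclusive = mean and replicates disagree; tested in HMLE shEcad cells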;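 note: 0% = median of negative and 100% = median of positive control wells; the first replicate is given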
eIF4H inh retest = recorded beside eIF4H inh, whose call it bears; inhibition, %; compound at 20 µM; confirmation average;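 mean of two retest wells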
PABP polyA inh retest = second read-out of PABP polyA inh, no call of its own (marks repeat the call); inhibition, %; compound at 20 µM; confirmation repeats;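 mean of two retest wells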
MT1-MMP act inh RFP = second read-out of MT1-MMP act inh, no call of its own (marks repeat the call); RFP signal change, %; measured here: RFP expression control read;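 0 = vehicle wells; hits needed this value within 50% of zero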
* = called active by the depositor; i = inactive; ? = inconclusive; nt = not tested or not shown. Random draw from the library. About 3% of those tested had a hit in this group.

SMILES	eIF4H inh	PABP polyA inh	MT1-MMP act inh	MT1-MMP act inh RFP	HIV Env fusion	Rce1 inhib	Yeast UUG start	CSC inhib	others
O=C(CSc1nnc(-c2cccnc2)o1)Nc1ccc(F)cc1	nt	nt	5	8	-13	nt	-7	nt
Fc1cccc(CN2CCN(C(=S)NCCc3ccccc3)CC2)c1	-9	-13	3	-1	-3	i	nt	-3
Cc1ccc(S(=O)(=O)Nc2c(Cl)c(Cl)c(O)c3ccccc23)cc1	7	28	nt	nt	nt	i	nt	10
Cc1nn(Cc2ccccc2)c(Cl)c1/C=N/NC(=O)c1cccnc1	0	-2	4	5	26	i	-16	1
Cc1onc(NC(=O)NC(=O)c2ccccc2F)c1Br	-6	-6	-2	2	-13	i	-6	-3
CCOCCCn1c(=S)[nH]c2ncccc2c1=O	-9	-17	9	12	-41	i	-11	-2
O=S(=O)(c1cccc(F)c1)N1CCN(c2nc(-c3cccnc3)nc3ccccc23)CC1	nt	nt	-4	-4	-13	nt	-20	16
O=C(c1cnsn1)N1CCCC(Nc2ccc(F)c(F)c2)C1 (centres undefined)	-1	-3	2	6	-1	i	5	nt
CN(C)C(=O)Cn1c(=O)n(C)c2ccccc21	8	30	1	2	-30	i	-18	-3
CC1=CC=CC2=N/C(=N\S(=O)(=O)c3ccc(F)cc3F)c3ccccc3CN12	0	-11	-3	-4	13	i	18	1
c1ccc(-n2ncc3c(N4CCC5(CC4)OCCO5)ncnc32)cc1	-5	-1	0	-3	nt	i	-19	8
O=C(N=Nc1c(O)[nH]c2ccc([N+](=O)[O-])cc12)c1cc(-c2ccccc2Cl)nc2ccccc12	30	-1	-2	1	-39	i	nt	9
COc1ccc(CNC(=O)Nc2nc(C(N)Cc3ccc(F)cc3)cs2)cc1 (centres undefined)	nt	nt	-1	-1	-26	nt	-4	nt
CC(C)C(=O)Nc1c2c(nn1-c1ccc([N+](=O)[O-])cc1)CS(=O)(=O)C2	5	1	-1	3	10	i	-7	-5
COc1ccc(NC(=O)c2cc(C)nn2-c2ccccc2)cc1	-6	-1	-7	-1	-5	i	-11	-21

Sorted by SMILES length (rising): part of the list above
SMILES	eIF4H inh	PABP polyA inh	MT1-MMP act inh	MT1-MMP act inh RFP	HIV Env fusion	Rce1 inhib	Yeast UUG start	CSC inhib	others
CN(C)C(=O)Cn1c(=O)n(C)c2ccccc21	8	30	1	2	-30	i	-18	-3
COc1ccc(NC(=O)c2cc(C)nn2-c2ccccc2)cc1	-6	-1	-7	-1	-5	i	-11	-21
O=S(=O)(c1cccc(F)c1)N1CCN(c2nc(-c3cccnc3)nc3ccccc23)CC1	nt	nt	-4	-4	-13	nt	-20	16

Next section:
SMILES	eIF4H inh	PABP polyA inh	MT1-MMP act inh	MT1-MMP act inh RFP	HIV Env fusion	Rce1 inhib	Yeast UUG start	CSC inhib	others
O=C(CN1C(=O)c2ccccc2S1(=O)=O)Nc1cccnc1	2	-12	5	1	nt	i	-11	-7
O=C1CC(c2ccc3ccccc3c2)NN1 (centres undefined)	nt	nt	4	2	-5	nt	-10	-13
COc1ccccc1NC(=O)c1ccc(NC(=O)CNC(=O)c2ccc(OC)c(OC)c2)cc1	9	8	-2	0	0	i	-9	3
CC(C)CC(=O)NC(=S)NNC(=O)c1cccc([N+](=O)[O-])c1	9	-3	-2	2	-7	i	nt	-2
COC(=O)c1cc(=O)nc2sc3ccccc3n12	-2	17	1	4	nt	i	-16	-22
COC(=O)C1(CCSC)NC(c2ccco2)C2C(=O)N(C)C(=O)C21 (centres undefined)	-7	2	0	13	-121	i	-21	-10
COc1cccc(Sc2cc(N3CCOCC3)nc(-c3ccccc3)n2)c1	-11	-4	-3	-6	nt	i	nt	58
Cc1ccc(N2C(=O)CC(Cc3cc(C)cc(C)c3)C2=O)cc1 (centres undefined)	0	2	-9	-6	-3	i	-3	-18
Cc1cnc(C(=O)NCC(c2ccccc2)c2ccccc2)cn1	1	6	-5	-3	9	i	-9	-8
CC1N(C)c2cccc3cccc(c23)N1C	?	-12	-10	1	-5	i	-26	-1
O=C(NCCN1CCCC1)c1ccc2c(c1)N(Cc1cccc(Cl)c1)C(=O)c1ccccc1S2(=O)=O	-9	-3	0	2	0	i	-22	107*
CCOc1ccc(CCN2C(=S)N([C@@H](CC(C)C)CN3CCC[C@@H]3CN3C(=S)NC[C@@H]3Cc3ccc(O)cc3)C[C@@H]2CC(C)C)cc1	nt	nt	1	-8	10	nt	-16	nt
Cc1cc(=O)c(C(=O)O)nn1-c1ccccc1C(F)(F)F	-5	1	3	5	10	nt	6	-7
CC(=O)Oc1ccc([N+](=O)[O-])cc1N1C(=O)c2ccccc2C1=O	7	2	5	-1	-64	i	-1	-1
O=C(O)c1c2c(nc3ccccc13)CCCCC2	2	13	5	8	nt	i	-13	-4

Reprinted from the part before: 3 compounds; new compounds follow.
SMILES	eIF4H inh	PABP polyA inh	MT1-MMP act inh	MT1-MMP act inh RFP	HIV Env fusion	Rce1 inhib	Yeast UUG start	CSC inhib	others
Cc1cc(=O)c(C(=O)O)nn1-c1ccccc1C(F)(F)F	-5	1	3	5	10	nt	6	-7
CC(=O)Oc1ccc([N+](=O)[O-])cc1N1C(=O)c2ccccc2C1=O	7	2	5	-1	-64	i	-1	-1
O=C(O)c1c2c(nc3ccccc13)CCCCC2	2	13	5	8	nt	i	-13	-4
COc1ccc2nc(N(CCN(C)C)C(=O)c3ccc(C(=O)c4ccccc4)cc3)sc2c1	-11	-6	1	-2	19	i	-1	-10
CN1CCC(=NNC(=O)c2ccc(N(Cc3ccc(Cl)cc3)S(C)(=O)=O)cc2)CC1	-8	20	5	3	-12	i	-15	16
Cc1nn(CCCC(=O)Nc2sc3c(c2C#N)CCC3)c(C)c1[N+](=O)[O-]	1	-4	-7	-2	nt	nt	-3	-17
O=C(O)c1cc(=O)cc(C(=O)O)[nH]1	-4	2	4	6	-41	i	0	5
Nc1ccn(C2CCCCO2)c(=O)n1 (centres undefined)	nt	nt	2	7	?	nt	-14	nt
O=C(CCNS(=O)(=O)c1ccccc1C(F)(F)F)N1CCN(C(c2ccccc2)c2ccccc2)CC1	nt	nt	-10	-2	-47	i	-1	43
c1ccc(Cn2nnnc2C(c2cccs2)N2CCOCC2)cc1 (centres undefined)	-11	-3	1	4	nt	i	-10	-14
O=C(CC12CC3CC(CC(Br)(C3)C1)C2)Nc1nncs1	-3	0	4	4	7	i	-16	-10
Cc1ccc(S(=O)(=O)N2CCCC(C(=O)N(Cc3cccs3)C3CC3)C2)cc1 (centres undefined)	-4	-4	-6	-13	28	i	-4	nt
CCCCN(C(=O)CC(c1ccccc1)c1ccccc1)c1c(N)n(CCC)c(=O)[nH]c1=O	-13	3	-12	-17	-5	i	-10	3
O=C1/C(=C/C=C/c2ccco2)SC(=S)N1NS(=O)(=O)c1ccccc1	89*	89*	-7	12	-11	nt	-25	6
CCn1c(C)[n+](Cc2ccccc2)c2ccc(Cl)cc21	-5	1	-4	-3	1	i	nt	-20
O=C1ON=C(c2ccccc2)/C1=C/c1ccc(O)cc1	-16	-10	-6	-4	6	i	-21	71
COc1cc(C(C)=O)ccc1OC(C)C(=O)Nc1ccc(S(=O)(=O)N2CCCC2)cc1 (centres undefined)	nt	nt	2	0	nt	nt	3	-7
CCOc1cc(N2CCOCC2)c(OCC)cc1NC(=O)COC(=O)c1c(CC)noc1C	nt	nt	6	-2	8	nt	5	-2

Not a retest: entries from further up.
SMILES	eIF4H inh	PABP polyA inh	MT1-MMP act inh	MT1-MMP act inh RFP	HIV Env fusion	Rce1 inhib	Yeast UUG start	CSC inhib	others
COc1cc(C(C)=O)ccc1OC(C)C(=O)Nc1ccc(S(=O)(=O)N2CCCC2)cc1 (centres undefined)	nt	nt	2	0	nt	nt	3	-7
CCOc1cc(N2CCOCC2)c(OCC)cc1NC(=O)COC(=O)c1c(CC)noc1C	nt	nt	6	-2	8	nt	5	-2

Other entries
SMILES	eIF4H inh	PABP polyA inh	MT1-MMP act inh	MT1-MMP act inh RFP	HIV Env fusion	Rce1 inhib	Yeast UUG start	CSC inhib	others
COCCCn1nnnc1SCC(=O)N1c2ccccc2CC1C (centres undefined)	5	3	4	2	-7	i	nt	4
c1ccc(-c2nc3ccccn3c2-c2ccccc2)cc1	nt	nt	-2	-8	20	i	nt	55
CCOC(=O)CC1C(=O)NCCN1S(=O)(=O)c1ccc(NC(C)=O)cc1 (centres undefined)	-6	-8	1	5	7	i	-11	-11
CCN(CC)S(=O)(=O)c1ccc(N2CCOCC2)c(NC(=O)c2ccc(C#N)cc2)c1	4	6	5	4	20	i	nt	-8
C/C(=N\NC(=O)c1nn(C)c(C)c1Br)c1ccc(NC(=O)c2ccccc2F)cc1	-4	16	2	3	nt	i	-32	7
COc1cccc(Nc2nc(-c3ccccc3O)nc3ccccc23)c1	-3	-4	-8	-5	12	i	-13	8
COc1ccc(-c2cc(C(F)(F)F)c(C#N)c(=O)[nH]2)cc1	5	11	-2	2	-1	i	-8	-4
Cc1cccc(C(=O)OCC(=O)N(C)c2ccccc2)c1C	-7	-8	-1	-1	3	i	0	10
NC(=O)c1cccnc1Nc1cccc([N+](=O)[O-])c1	-4	2	2	-2	-55	i	nt	2
Cc1ncc(CO)c2c1Oc1nc(-c3ccccc3F)nc(SCC(=O)N(C)c3ccccc3)c1C2	37	10	0	-2	nt	i	-5	-15
CC[C@]1(c2ccccc2)C(=O)N(C(=O)OC)N1C(=O)OC	3	0	-1	4	11	i	3	1
CCOc1ccccc1N1CCN(C(=O)c2ccccc2SCC(=O)N2CCCC2)CC1	-8	4	-3	-1	-11	i	-1	-6
Nn1c(Cc2cccc3ccccc23)nnc1SCn1nnc2ccccc2c1=O	-7	-3	3	2	nt	i	nt	0
Cc1ccc(-n2nc3c(=O)n(C(C)C(=O)NCCCc4ccccc4)nc(C)c3c2C)cc1 (centres undefined)	-16	9	3	-29	16	i	-3	-3
COc1cc(/C=C2\SC(=S)N(CCC(=O)Nc3ccccc3)C2=O)cc(OC)c1OC	89	9	11	7	-11	i	nt	-1	eIF4H inh retest=42;PABP polyA inh retest=35

Reprinted at random: 7 compounds from above, in no set order.
SMILES	eIF4H inh	PABP polyA inh	MT1-MMP act inh	MT1-MMP act inh RFP	HIV Env fusion	Rce1 inhib	Yeast UUG start	CSC inhib	others
CCOC(=O)CC1C(=O)NCCN1S(=O)(=O)c1ccc(NC(C)=O)cc1 (centres undefined)	-6	-8	1	5	7	i	-11	-11
COc1cc(/C=C2\SC(=S)N(CCC(=O)Nc3ccccc3)C2=O)cc(OC)c1OC	89	9	11	7	-11	i	nt	-1	eIF4H inh retest=42;PABP polyA inh retest=35
COc1ccc(-c2cc(C(F)(F)F)c(C#N)c(=O)[nH]2)cc1	5	11	-2	2	-1	i	-8	-4
CCN(CC)S(=O)(=O)c1ccc(N2CCOCC2)c(NC(=O)c2ccc(C#N)cc2)c1	4	6	5	4	20	i	nt	-8
COCCCn1nnnc1SCC(=O)N1c2ccccc2CC1C (centres undefined)	5	3	4	2	-7	i	nt	4
CC[C@]1(c2ccccc2)C(=O)N(C(=O)OC)N1C(=O)OC	3	0	-1	4	11	i	3	1
Cc1ncc(CO)c2c1Oc1nc(-c3ccccc3F)nc(SCC(=O)N(C)c3ccccc3)c1C2	37	10	0	-2	nt	i	-5	-15
